# From PubChem
# Menin MLL FP FL = inhibitors of human menin-MLL interaction, wild-type MLL peptide | Fluorescence polarization, fluorescein-MLL peptide displacement from menin | FP activity change, % at 61.4 µM | AID 1766 | 290,000 tested, under 10 active; inconclusive = falling polarisation curve, or a change in total fluorescence; inactive = total fluorescence flat and polarisation flat or rising; no compound was filed as active; the % refers to the polarisation; negative = inhibition;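 note: % of control where 0% means no effect; inhibitors lower the polarisation; unlabelled MLL peptide was the positive control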
# ClpP mod = qHTS Assay for Activators of ClpP | ATP-dependent Clp protease proteolytic subunit (Bacillus subtilis (strain 168)), P80244 | purified B. subtilis ClpP, FRET peptide cleavage, 20 min | Potency, µM (top dose mostly 57.5 µM), inactives show top-dose activity change, negative = active | actives 1.9% (n = 340,000) | AID 651965, 2013; active = well fitted falling curve with a large enough effect; inconclusive = small, poorly fitted or top-dose-only effect; inactive = no such curve, though single readings can be large or run the other way; note: potency is the fitted concentration of half-maximal effect; the source files actives as falling curves though it sought activators and does not explain the sign; nearly all actives have a fitted effect of over 65% in size; many hits overshoot -100%
# Target sequence (P80244 whole entry, looked up): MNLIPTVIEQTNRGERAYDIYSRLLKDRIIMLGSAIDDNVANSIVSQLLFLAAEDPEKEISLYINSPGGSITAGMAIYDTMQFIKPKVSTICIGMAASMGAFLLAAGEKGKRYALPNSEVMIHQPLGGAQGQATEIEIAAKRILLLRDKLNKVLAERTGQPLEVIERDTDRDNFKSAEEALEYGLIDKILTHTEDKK
#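 FRET quenching reversal measured ClpP activation: 10 microg/mL B. subtilis ClpP at pH 8 with the FRET-FV decapeptide, read at 430 nm after 320 nm excitation. The 20-min minus 0-min signal was scaled between DMSO/no-enzyme wells and ADEP (5.8 microM final).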
# TRPV1 potentiator = human TRPV1 potentiation; Q8NER1; TRPV1-expressing cells, Fluo-8 calcium influx, capsaicin EC20 potentiation; host cell line not named in the record; control for the full effect not named in the record; potentiation, % at 8.33 µM; actives 0.02% (n = 320,000); AID 540277; active means potentiation above 80%; inconclusive means 30% to 80%; inactive means below 30%; note: 0% is about no effect
# Target sequence (Q8NER1 whole entry, looked up): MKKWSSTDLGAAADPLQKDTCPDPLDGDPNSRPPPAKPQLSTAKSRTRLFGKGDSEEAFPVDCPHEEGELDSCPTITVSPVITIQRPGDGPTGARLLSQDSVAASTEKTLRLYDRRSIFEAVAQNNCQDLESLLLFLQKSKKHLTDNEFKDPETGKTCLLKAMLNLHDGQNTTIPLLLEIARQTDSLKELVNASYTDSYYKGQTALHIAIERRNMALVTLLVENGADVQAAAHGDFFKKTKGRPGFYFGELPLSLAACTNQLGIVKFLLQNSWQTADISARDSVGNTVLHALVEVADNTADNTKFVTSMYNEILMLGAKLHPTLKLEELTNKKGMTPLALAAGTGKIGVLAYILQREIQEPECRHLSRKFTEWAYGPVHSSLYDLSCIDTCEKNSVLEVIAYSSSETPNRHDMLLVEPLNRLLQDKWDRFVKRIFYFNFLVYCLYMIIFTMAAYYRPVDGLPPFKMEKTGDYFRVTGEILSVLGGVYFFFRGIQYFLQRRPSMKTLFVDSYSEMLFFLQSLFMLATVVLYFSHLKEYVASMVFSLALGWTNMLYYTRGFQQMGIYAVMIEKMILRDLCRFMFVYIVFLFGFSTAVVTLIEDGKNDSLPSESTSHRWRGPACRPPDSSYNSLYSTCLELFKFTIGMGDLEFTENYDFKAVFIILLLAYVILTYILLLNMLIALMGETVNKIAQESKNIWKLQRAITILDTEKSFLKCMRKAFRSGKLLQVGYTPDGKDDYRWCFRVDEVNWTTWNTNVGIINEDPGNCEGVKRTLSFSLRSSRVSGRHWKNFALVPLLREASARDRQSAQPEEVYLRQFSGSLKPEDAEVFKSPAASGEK
#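 Cells expressing TRPV1 were dye-loaded with Fluo-8 and read kinetically: 10 s baseline, 3 min after compound (agonist portion), then 2 min after EC20 capsaicin (allosteric enhancer portion). Calcium-bound dye fluorescence at 480/520 nm.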
# TRPML1 inh = human mucolipin-1 channel inhibition; TRPML1-inducible cells, Ca2+ dye fluorescence, FDSS; hits give low values; inhibition of EC80 agonist-evoked calcium signal; activity change, negative = inhibition, % (concentration not given with the values); actives 0.02% (n = 390,000); AID 624415; in the data active means activity change below about -50%; inconclusive means about -30% to -50%; inactive means above about -30%;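 note: stimulus is agonist 54-4 at its EC80 concentration; % is set by controls: 0 for no effect and ±100 for the full control effect; compound concentration not given in the record; the text of the record puts the active cut at -80%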
#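 TRPML1-DL cells, Tet-induced overnight (~16 h, 37 °C) at 1,500 cells/well, were loaded with Ca8 no-wash dye plus quencher for 45-90 min at room temperature. Compounds were pinned during FDSS kinetic reading; agonist 54-4 at EC80 (4 uM final) then added.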
# gsp ag = gsp mutant agonism; gsp mutant cells, cAMP HTRF, 30 min; control for the full effect not named in the record; Potency, µM (highest dose often 76.9 µM), for the others: top-dose activation (cAMP increase), most hits filed as activators; AID 624287; actives 0.13% (n = 340,000); active = well fitted activation curve with a large enough effect; inconclusive = small, poorly fitted or top-dose-only effect, or another doubt; inactive = no such curve, though single readings can be large or run the other way; cell line not stated here;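 note: phosphodiesterase inhibitor Ro 20-1724 added with compounds to block cAMP breakdown; potency is the fitted concentration of half-maximal effect; nearly all actives have a fitted effect of over 60% in size; about a fifth of the inactives were tested at one dose only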
#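 Cells in DMEM/10% FBS with G418 were pretreated with compounds in DMSO plus […] (300 uM stock) for 30 min at 37C. cAMP was measured by HTRF (cAMP-d2 plus anti-cAMP antibody-K) after 30 min at room temperature.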
# Sfp PPTase inh = inhibitors of Bacillus subtilis Sfp phosphopantetheinyl transferase; Potency, µM, for inactives: max response, negative = inhibition, usual class: inhibitors; Biochemical Sfp PPTase activity, qHTS; actives 3.5% (n = 310,000); AID 1490; Q9F4F7; active = well fitted inhibition curve with a large enough effect; inconclusive = small, poorly fitted or top-dose-only effect, or another doubt; inactive = no such curve, though single readings can be large or run the other way;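 note: the enzyme is Sfp with the accession as filed and its product quenches rhodamine fluorescence; potency is the fitted concentration of half-maximal effect; 0% = enzyme reaction without inhibitor and -100% = no enzyme wells; top concentration of the series not given in the record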
#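 After 15 min at room temperature with compound, 15 nM Sfp received 5 uM rhodamine-CoA plus 12.5 uM BHQ-2-ybbR (50 mM Hepes pH 7.6, 10 mM MgCl2). Rate came from the fluorescence difference over 30 min, ex 525/em 598 nm.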
# gsp antagonist = gsp mutant antagonism; Potency, µM (titrated, usually from 76.9 µM), inactives show at the highest dose activity change, negative = inhibition, most hits filed as inhibitors; actives 0.4% (n = 340,000); gsp-mutant cells, cAMP HTRF, 30 min; control for the full effect not named in the record; active = falling curve of any shape with a large fitted effect; inconclusive = falling curve, mostly with a smaller effect; inactive = flat or rising curve; cell line not stated here;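 note: intracellular cAMP measured with PDE inhibitor Ro 20-1724 present during compound exposure; potency is the fitted concentration of half-maximal effect; % is set by controls: 0 for no effect and ±100 for the full control effect; nearly all actives have a fitted effect of over 65% in size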
#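 HTRF cAMP measurement after 30 min RT detection following 30 min, 37C compound treatment alongside […] (added as 300 uM solution) in G418-selected cells seeded at 2000/well and grown 16–24 h.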
# Numbers without * were called inactive; ? = inconclusive; · = not tested or not shown; & = joins results of further samples; ! = a repeat was not active; [ ] = another dose, or the depositor's remark.
No.	compound	Menin MLL FP FL	ClpP mod	TRPV1 potentiator	TRPML1 inh	gsp ag	Sfp PPTase inh	gsp antagonist
1	CCC(Sc1nc2n[nH]c(C)c2c(=N)n1-c1ccc(C)c(Cl)c1)C(=O)N1CCOCC1 (stereo not drawn)	-1.8	17%	-10	6	4%	-7%	3%
2	O=C1C(Cl)=C(N2CCCCCC2)C(=O)N1c1ccc(Br)cc1	-1.5	-1.2%	1	23	-6%	-13%	-19%
3	O=C1CCC([N+](=O)[O-])C(c2cc3c(cc2Cl)OCO3)N1 (stereo not drawn)	-5.0	-0.7%	-4	1	-13%	20%	14%
4	CCN(CC)CC#CC(C)(C)OC(C)=O	·	1.7%	·	3	25%	·	4%
5	CCOC(=O)CSc1nc2c(sc(=S)n2Cc2ccco2)c(=O)n1-c1ccc(F)cc1	5.2	-0.1%	4	-6	13%	-8%	6%
6	O=C(Cc1sc(-c2ccccc2Cl)nc1-c1ccccc1)Nc1ccc(F)cc1	3.0	2.7%	8	-2	0%	12%	7%
7	COc1ccc2ccccc2c1-c1csc(N)n1	-10.0	-4.1%	26	-5	-10%	-2%	11%
8	O=C(CCC(=O)OCc1ccc(C(=O)Oc2ccc(Cl)cc2)cc1)Nc1ccccc1	1.9	-2.3%	2	-21	7%	-1%	11%
9	COc1ccc(Cn2nnnc2CN(Cc2cc3cc(C)ccc3[nH]c2=O)C2CCCC2)cc1	6.3	-3.8%	-29	-4	1%	20µM*	-16%
10	O=C(NNc1cccc(Cl)n1)c1c(Cl)cccc1Cl	4.2	-3.2%	-5	-8	31%	12%	-2%
11	COc1cccc(OCc2cc(C(=O)N(Cc3nccn3C)C(C)C)no2)c1	·	-0.7%	19	-15	36%	6%	-1%
12	COc1ccccc1NS(=O)(=O)c1cccc(NC(=O)C(C)NC(=O)c2ccco2)c1 (stereo not drawn)	·	-2.5%	2	-21	-15%	·	5%
13	O=C(Nc1nc(-c2ccco2)c(-c2ccco2)s1)c1cnccn1	·	-1.7%	-2	50	6%	·	2%
14	O=C(O)c1ccc(/C=C2\CCCc3c2nc2ccccc2c3C(=O)O)cc1	-3.3	·	12	18	?	13%	7%
15	COc1ccc(CCNC(=O)C2CCCN(S(=O)(=O)c3cc(C)ccc3OC)C2)cc1OC (stereo not drawn)	·	0.3%	10	-1	-4%	11%	-1%
16	O=C(Nc1ccccn1)c1ccc([N+](=O)[O-])o1	6.5	17%	-3	12	?	26%	4%
17	CC(=O)NC(CCCNC(=S)NC1CCCCC1)C(=O)O (stereo not drawn)	-5.1	·	11	-6	0%[15.4 µM]	10%	7%
18	C[C@H](CO)N1C[C@H](C)[C@@H](CN(C)C(=O)Nc2ccccc2)Oc2c(NS(=O)(=O)c3cccs3)cccc2C1=O	·	-5.7%	·	-8	·	·	-7%
19	COc1cc(/C=N/N2CCOCC2)ccc1OC(=O)c1ccco1	2.1	·	-13	5	-3%[15.4 µM]	6%	·
20	Cc1ccc(S(=O)(=O)N2CCCCC2)cc1NC(=O)c1nn(C)c(=O)c2ccccc12	·	?	1	-13	-4%[15.4 µM]	·	-5%
21	COc1ccc(OC)c(-n2c(=O)c3ccccc3c3ccccc3c2=O)c1	-1.5	1.0%	1	12	-1%	7%	2%
22	CCOC(=O)c1c(C)[nH]c(C(C)=NNC(=O)Cn2nc(C)cc2C)c1C	·	-1.0%	·	37	-15%	·	-10%
23	CC(C)C1C(c2ccccc2)NC(c2ccccc2)CC1(O)c1ccc(F)cc1 (stereo not drawn)	0.5	-1.0%	-11	3	-31%[inhibitor]	56µM*	-22%
24	CC(=O)NC(CC(=O)NC1CCCCCC1)c1ccccc1 (stereo not drawn)	2.4	0.5%	-1	-23	-2%	11%	15%
25	CCOC(=O)C1=CC[C@@H](c2ccccc2Cl)N(S(=O)(=O)c2ccc(C)cc2)[C@H]1C(=O)OCC	·	0.6%	-5	14	·	·	?
26	CCCCCCc1c(O)nc(SCCN2CCOCC2)[nH]c1=O	-4.8	·	3	7	-3%[15.4 µM]	11%	2%
27	COc1cccc(NC(=O)C2C3C=CC4(O3)C2C(=O)N(CCCN2CCC(C)CC2)C4C(=O)NC2CCCCC2)c1 (stereo not drawn)	2.0	0.1%	2	15	-7%[15.4 µM]	21%	20%
28	CCc1cccc(C)c1NS(=O)(=O)Cc1ccccc1	3.5	-0.3%	7	22	5%[15.4 µM]	11%	-3%
29	CC/C(O)=C1\C(=O)CCCC1=NCCc1c(C)[nH]c2ccc(C)cc12	6.5	0.1%	-13	·	28%	7%	-29%
30	CCCS(=O)(=O)c1c(S(=O)(=O)CCC)c2ccc(C(N)=O)cn2c1C(=O)OC	-0.2	3.3%	-2	2	-11%	17%	-15%
31	CCC1CCCCN1C(=O)CSC1=NN2CCCC(=O)N=C2S1 (stereo not drawn)	9.4	·	23	-12	6%	11%	-1%
32	CCN(CC)CCNC(=O)c1ccc(NC(=O)c2cn(-c3ccccc3)nc2-c2cccs2)cc1	-0.9	-8.7%	-3	12	5%	?	-1%
33	CN(C)N(Cc1ccccc1)C(=O)C(O)(c1ccccc1)c1ccccc1	0.3	-1.3%	-7	10	-31%[inhibitor]	-3%	-15%
34	C=CCn1c(=N)n(CC(O)COc2ccc(OC)cc2)c2ccccc21 (stereo not drawn)	4.1	-1.6%	3	-3	-10%	-14%	-1%
35	CCOc1ccccc1C(=O)N1CCOCC1	-4.2	-3.7%	11	-2	4%	11%	11%
36	CC(C)Cn1c(N)c(C(=O)COC(=O)/C=C/c2ccccc2)c(=O)n(C)c1=O	·	-7.2%	12	28	4%[15.4 µM]	·	35µM*
37	COc1ccccc1C(=O)C1CCCN(C(=O)c2cc(C(C)C)no2)C1 (stereo not drawn)	0.5	-6.9%	2	24	-2%	24%	-9%
38	CCCC(O)(c1ccc(Br)cc1)C(CN1CCOCC1)c1ccc(Cl)cc1 (stereo not drawn)	-5.7	·	14	67	9%[15.4 µM]	-2%	5%
39	CCOCCCn1c(SCC(=O)NC(C)(C)C)nc2ccccc2c1=O	-1.4	-5.1%	-1	-14	7%	15%	-8%
40	COc1ccc(NC(=O)CN2CCN(c3ccc(C)cc3C)CC2)cc1	-4.5	-5.5%	-10	28	-6%[15.4 µM]	2%	-2%
41	Cc1cc(C)n2nc(SCC(=O)N3CCN(c4ccccc4)CC3)nc2n1	·	32µM*	·	18	27%	·	-1%
42	O=C(Nc1nnc(C2CCCCC2)s1)C1CC(=O)N(c2ccc(F)cc2)C1 (stereo not drawn)	-0.6	·	-11	4	-6%[15.4 µM]	-3%	4%
43	CC(C)Cn1c(N)c(C(=O)COC(=O)c2cc(-c3ccco3)nc3ccccc23)c(=O)n(C)c1=O	21&-2.7	4.2%	-1	-6	·	20µM*!	0%
44	CCC(C)Sc1nnc(Cc2cc(=O)[nH]c(=O)[nH]2)n1-c1ccc(F)cc1 (stereo not drawn)	?	2.5%	?	-9	24%	?	2%
45	CCOc1ccc(OCC)c(NC(=O)CN(c2ccc(OC)cc2)S(=O)(=O)c2c(C)noc2C)c1	·	-0.3%	11	7	-4%	9%	0%
46	Cc1ccc2cc(CN(CC3CCCO3)S(=O)(=O)c3ccc4c(c3)OCCO4)c(=O)[nH]c2c1C (stereo not drawn)	·	-21%	·	32	-1%	·	-16%
47	COc1ccc([C@@H]2[C@@H]3C(=O)N(C(C)(C)C)C(=O)[C@@H]3[C@]3(Cc4ccc(Cl)cc4)C(=O)N(c4ccc(C)cc4)C(=O)N23)cc1	·	0.5%	8	3	7%	·	-2%
48	COc1ccccc1-n1c(-c2ccccc2)n[nH]c1=S	3.4	·	-6	15	0%[15.4 µM]	71µM*	8%
49	Cc1ccc(C(=O)NC(=S)NNC(=O)c2ccc([N+](=O)[O-])cc2)cc1	-5.0	0.0%	?	-3	-9%	14%	-3%
50	COCc1nc2ccccc2n1Cc1ccccc1C	-2.2	-2.5%	-9	28	?	6%	-5%

# Following part.
No.	compound	Menin MLL FP FL	ClpP mod	TRPV1 potentiator	TRPML1 inh	gsp ag	Sfp PPTase inh	gsp antagonist
51	CC(=O)Nc1ccc(NS(=O)(=O)c2ccc(Cl)c(C(=O)O)c2)cc1	6.7	-3.2%	3	-2	5%	4%	12%
52	CCCCC(=O)Nc1ccc(Cl)cc1F	·	-0.6%	·	8	-4%	·	·
53	CCN(CC)CCCN(Cc1cc2cc3c(cc2[nH]c1=O)OCO3)C(=S)Nc1ccc(OC)cc1	0.9	·	1	-1	-30%[15.4 µM]	7%	6%
54	CCCCCC(=O)C(=O)c1ccc(O)cc1O	0.4	4.3%	?	25	?	10%	9%
55	O=C1NCC(c2ccccc2)(c2ccccc2)C(=O)N1	·	-1.8%	·	5	1%	·	12%
56	COCCNC(=O)/C(C#N)=C/c1c(N2CCCCCC2)nc2ccccn2c1=O	4.1	1.2%	3	-1	14%[15.4 µM]	2%	-3%
57	O=C(N1CCOCC1)n1cnc2ccccc21	0.6	-0.2%	1	0	-19%	8%	5%
58	COc1cc(C)c(S(=O)(=O)NOCc2ccc([N+](=O)[O-])cc2)c(C)c1C	-3.6	-6.7%	5	-20	-3%[15.4 µM]	7%	-16%
59	Clc1cccc(Oc2cnns2)c1Cl	2.2	-2.5%	13	-12	10%	-16%	19%
60	COc1ccc(O)c(C(=O)c2cnc3c(c2)c(C)nn3CCO)c1	9.5	·	18	4	14%[15.4 µM]	23%	2%
61	COc1ccc(OC)c(-n2cnc3cc(C(=O)O)ccc32)c1	2.7	-0.3%	5	2	-1%	4%	8%[15.4 µM]
62	Cc1cc2c3c(c1)C1(SCC(=O)N1c1ccc(F)cc1)C(=O)N3C(C)(C)CC2C (stereo not drawn)	5.0	1.6%	-8	-22	-50%[inhibitor]	-18%	7%
63	O=C(COC(=O)C(Cc1ccccc1)NC(=O)c1cccs1)NCc1ccccc1 (stereo not drawn)	·	-1.2%	-5	8	-34%[inhibitor]	·	-7%
64	O=S(=O)(c1ccc(F)cc1)N1CCN(CCc2ccccc2)CC1	-6.1	0.6%	-9	11	5%[15.4 µM]	0%	14%
